# UUG fidelity – modulators of yeast start codon fidelity, primary screen, whole organism, S. cerevisiae, single point, plate reader; S. cerevisiae UUG-firefly luciferase reporter, luminescence/redox ratio; activity score, % at 18.7 µM; 0.13% of 350,000 active; AID 602363, 2012;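 active = replicate mean at a twofold rise or more, about +100% in these data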;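 also: firefly luciferase made from a UUG start codon reports start codon fidelity; reporter light over untreated wells divided by growth signal over untreated wells; some hits fall short of that in this replicate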
# Active calls of the source: *. These rows are one share of the data (hit frequency here may not be typical).
Structure | UUG fidelity
C[C@H](CO)N1C[C@H](C)[C@H](CN(C)Cc2ccncc2)Oc2ccc(NS(=O)(=O)c3cccs3)cc2C1=O | -5
CCCNC(=O)N1[C@@H]2CN(C(=O)c3ccccc3)c3ccccc3[C@@H]2[C@@H]1CO | 6
OC[C@@H]1Nc2ccc(C#Cc3ccccc3)cc2[C@H]2[C@@H]1CCN2Cc1nccs1 | -13
O=C(c1ccccc1)N1C[C@@H]2[C@H](c3ccccc31)[C@H](CO)N2Cc1cocn1 | -5
COc1ccc(S(=O)(=O)N2CCCCN3[C@@H](CO)[C@H](c4ccc(C5=CCCC5)cc4)[C@@H]3C2)cc1 | 16
C/C=C/c1ccc([C@H]2[C@@H](CNC(=O)c3ccccc3)N(C(C)=O)[C@H]2CO)cc1 | -3
C[C@@H]1CN([C@H](C)CO)C(=O)Cc2cc(NC(=O)Nc3ccc(F)cc3)ccc2O[C@@H]1CN(C)C | -3
C[C@@H]1CN([C@@H](C)CO)C(=O)c2cc(NC(=O)Nc3ccc(C(F)(F)F)cc3)ccc2O[C@@H]1CN(C)S(C)(=O)=O | 6

# Part of the list above, with each value named.
C[C@@H]1CN([C@H](C)CO)C(=O)Cc2cc(NC(=O)Nc3ccc(F)cc3)ccc2O[C@@H]1CN(C)C
  UUG fidelity: -3

O=C(c1ccccc1)N1C[C@@H]2[C@H](c3ccccc31)[C@H](CO)N2Cc1cocn1
  UUG fidelity: -5

C[C@@H]1CN([C@@H](C)CO)C(=O)c2cc(NC(=O)Nc3ccc(C(F)(F)F)cc3)ccc2O[C@@H]1CN(C)S(C)(=O)=O
  UUG fidelity: 6

OC[C@@H]1Nc2ccc(C#Cc3ccccc3)cc2[C@H]2[C@@H]1CCN2Cc1nccs1
  UUG fidelity: -13

# Next section
Structure | UUG fidelity
CCCNC(=O)Nc1ccc2c(c1)C(=O)N(C)[C@H]1CC[C@H](CC(=O)OC)O[C@H]1CO2 | 3
COCC(=O)Nc1ccc2c(c1)C(=O)N(C)C[C@@H](OC)[C@@H](C)CN(Cc1ccccc1OC)[C@H](C)CO2 | -7
O=C(NC[C@H]1[C@H](c2ccccc2)[C@H](CO)N1Cc1ccccn1)C1CCC1 | -40
CO[C@H]1CN(C)C(=O)c2cc(NS(=O)(=O)c3ccccc3)ccc2OC[C@@H](C)N(Cc2nccs2)C[C@H]1C | -1
COCC(=O)N1C[C@H]2[C@@H](c3ccccc31)[C@@H](CO)N2C(=O)C1CCOCC1 | 8
CO[C@@H]1CN(C)C(=O)c2cc(NC(=O)C3CCC3)ccc2OC[C@@H](C)NC[C@@H]1C | -10
CO[C@@H]1CN(C)C(=O)c2ccc(NC(=O)C3CC3)cc2OC[C@H](C)N(CCC(F)(F)F)C[C@@H]1C | -6
CCC(=O)N1CC[C@@H]2[C@H]1c1cc(-c3cccc(F)c3)ccc1N(C)[C@H]2CO | 8

# (listing goes on)
Structure | UUG fidelity
Cc1ccccc1S(=O)(=O)N1CC[C@H]2[C@@H](CO)N(C)c3ccc(Br)cc3[C@H]21 | -1
C/C=C/c1ccc([C@H]2[C@@H](CO)N(CC3CCCC3)[C@H]2CNS(C)(=O)=O)cc1 | -4
CO[C@@H]1CN(C)C(=O)c2cc(NC(C)=O)ccc2OC[C@@H](C)N(Cc2ccccn2)C[C@H]1C | 12
C[C@H]1CN([C@@H](C)CO)C(=O)c2cccc(NS(=O)(=O)c3cn(C)cn3)c2O[C@H]1CN(C)C(=O)Nc1ccc2c(c1)OCO2 | 15
COc1ccc(CN2C[C@@H](C)[C@@H](OC)CN(C)C(=O)c3cc(NC(=O)c4nc5ccccc5s4)ccc3OC[C@H]2C)cc1 | 0
CCNC(=O)[C@@H]1[C@@H](CO)[C@@H]2Cn3c(ccc(-c4ccccc4)c3=O)[C@H]1N2Cc1ccccc1 | -4
CNC[C@H]1Oc2ccc(NS(=O)(=O)c3ccc(Cl)cc3)cc2CC(=O)N([C@@H](C)CO)C[C@@H]1C | 8
O=C(C[C@H]1CC[C@@H]2[C@H](COC[C@@H](O)CN2S(=O)(=O)c2ccc(Cl)cc2)O1)N[C@@H]1CCN(Cc2ccccc2)C1 | 9

# The list continues:
Structure | UUG fidelity
C[C@@H]1CN([C@@H](C)CO)C(=O)c2cc(NC(=O)CCN3CCOCC3)ccc2O[C@@H]1CN(C)S(=O)(=O)c1cn(C)cn1 | -6
Cc1ccc(S(=O)(=O)N(C)C[C@@H]2Oc3ccc(NC(=O)c4ccncc4)cc3CC(=O)N([C@H](C)CO)C[C@@H]2C)cc1 | 0
CCNC(=O)C[C@H]1CC[C@H]2[C@@H](COC[C@@H](O)CN2C(=O)C2CCCC2)O1 | -11
CN(C)CC#Cc1ccc([C@H]2[C@@H](CO)N3CCCCN(S(=O)(=O)c4ccccc4F)C[C@H]23)cc1 | 30
CCC(=O)N1CC[C@@H]2[C@@H](CO)N(C)c3ccc(-c4ccccc4F)cc3[C@@H]21 | 1
C[C@H]1CN([C@@H](C)CO)C(=O)c2cc(C#CCc3ccccc3)cnc2O[C@H]1CN(C)Cc1cccc(F)c1 | -6
C/C=C/c1ccc([C@@H]2[C@@H](CN(CC)C(C)=O)N(C(=O)C3CC3)[C@H]2CO)cc1 | 20
N#Cc1ccc(-c2ccc([C@H]3[C@@H](CO)N4CCCCN(S(=O)(=O)c5ccccc5)C[C@@H]34)cc2)cc1 | 3

# Continued:
Structure | UUG fidelity
CO[C@@H]1CN(C)C(=O)c2ccc(NC(C)=O)cc2OC[C@@H](C)N(C(=O)c2ccncc2)C[C@@H]1C | 8
CC(C)C#Cc1ccc([C@H]2[C@H]3CN(S(=O)(=O)Cc4ccccc4)CCCCN3[C@H]2CO)cc1 | 7
CN(C)C(=O)C[C@H]1CC[C@H]2[C@@H](COC[C@H](O)CN2CC2CCOCC2)O1 | -20
O=C(C[C@@H]1CC[C@@H]2[C@H](COC[C@@H](O)CN2C(=O)Nc2ccc(Cl)c(Cl)c2)O1)NCc1ccc(F)cc1 | 6
C[C@@H]1CN([C@@H](C)CO)C(=O)c2cc(NC(=O)NC3CCCCC3)ccc2O[C@@H]1CN(C)Cc1ccc(C(F)(F)F)cc1 | 4
C/C=C/c1ccc([C@@H]2[C@@H](CO)N(S(C)(=O)=O)[C@H]2CN(C)C(=O)CC)cc1 | 2
C[C@H](CO)N1C[C@H](C)[C@H](CN(C)C)Oc2ccc(NC(=O)Cc3cn(C)c4ccccc34)cc2CC1=O | -5
O=C([C@H]1[C@H](CO)[C@H]2Cn3c(cccc3=O)[C@@H]1N2CC1CCCC1)N1CCc2ccccc2C1 | 5

# New compounds follow
Structure | UUG fidelity
Cc1ccc(S(=O)(=O)Nc2cccc3c2O[C@@H](CN(C)C(=O)NC(C)C)[C@H](C)CN([C@@H](C)CO)C3=O)cc1 | 23
COc1ccc(C(=O)N2C[C@H]3[C@@H](c4ccccc42)[C@@H](CO)N3Cc2ccc(Cl)cc2)cc1 | -1
CCC(=O)N1C[C@@H](C)[C@H](OC)CN(C)C(=O)c2cc(NC(=O)C3CCCCC3)ccc2OC[C@@H]1C | 2
C[C@@H]1CN([C@@H](C)CO)C(=O)c2c(c3ccccc3n2C)-c2ccccc2CO[C@H]1CN(C)Cc1ccc(C(=O)O)cc1 | 0
CO[C@H]1CN(C)C(=O)c2cc(NC(=O)C3CC3)ccc2OC[C@H](C)N(C)C[C@H]1C | 5
COc1ccc(NC(=O)N(C)C[C@H]2Oc3ccc(NC(=O)Nc4ccccc4)cc3C(=O)N([C@@H](C)CO)C[C@H]2C)cc1 | 2
C[C@H]1CN([C@@H](C)CO)C(=O)CCCn2nncc2CO[C@H]1CN(C)Cc1ccccc1C(=O)O | -7
CO[C@@H]1CN(C)C(=O)c2ccc(NC(=O)C3CCCC3)cc2OC[C@H](C)NC[C@@H]1C | -2

# Other structures:
Structure | UUG fidelity
COc1ccc(S(=O)(=O)Nc2ccc3c(c2)CC(=O)N([C@@H](C)CO)C[C@@H](C)[C@H](CN(C)C)O3)cc1 | 28
CCC(=O)Nc1ccc2c(c1)C(=O)N(C)C[C@H](OC)[C@@H](C)CN(Cc1cccc(F)c1)[C@@H](C)CO2 | -5
C[C@@H]1CN([C@@H](C)CO)C(=O)c2cc(NS(C)(=O)=O)ccc2O[C@@H]1CN(C)C(=O)Nc1ccccc1 | -20
COc1cccc(C(=O)Nc2ccc3c(c2)OC[C@@H](C)N(C(=O)C2CCCC2)C[C@H](C)[C@@H](OC)CN(C)C3=O)c1 | 14
Cc1ccc(S(=O)(=O)N(C)C[C@H]2Oc3ccc(NC(=O)c4ccncc4)cc3CC(=O)N([C@H](C)CO)C[C@H]2C)cc1 | -8
CN1C(=O)c2cc(NC(=O)c3ccccc3)ccc2OC[C@@H]2O[C@@H](CC(=O)NC3CCCC3)CC[C@@H]21 | 5
C[C@@H]1CN([C@@H](C)CO)C(=O)c2cc(NC(=O)C3CC3)ccc2O[C@@H]1CN(C)S(=O)(=O)c1cn(C)cn1 | -2
O=C(C1CCCCC1)N1C[C@@H]2[C@H](c3ccccc31)[C@@H](CO)N2CC1CCOCC1 | -14

# (continued)
Structure | UUG fidelity
CCNC(=O)C[C@@H]1CC[C@@H]2[C@H](COc3ccc(NC(=O)c4ccc(F)c(F)c4)cc3C(=O)N2C)O1 | 8
COc1ccc(CN2C[C@H](O)COC[C@@H]3O[C@H](CC(=O)N4CCc5ccccc5C4)CC[C@H]32)cc1 | -8
CN1C(=O)c2cc(NC(=O)Cc3ccccc3)ccc2OC[C@H]2O[C@@H](CC(=O)NC3CCC3)CC[C@@H]21 | 4
COCC(=O)N1C[C@@H](C)[C@@H](OC)CN(C)C(=O)c2ccc(NC(=O)C3CCC3)cc2OC[C@@H]1C | -15
N#Cc1cccc(-c2ccc3c(c2)[C@H]2[C@H](CCN2C(=O)c2ccccc2F)[C@@H](CO)N3)c1 | -4
COc1ccc(S(=O)(=O)N2CC[C@@H]3[C@H](CO)Nc4ccc(C#Cc5cccnc5)cc4[C@@H]32)cc1 | 0
C[C@@H]1CN([C@@H](C)CO)C(=O)c2cc(NS(=O)(=O)c3ccccc3)ccc2O[C@@H]1CN(C)Cc1ccncc1 | -3
COc1ccccc1-c1ccc([C@H]2[C@H](CO)N3CCCCN(C(=O)CN4CCOCC4)C[C@@H]23)cc1 | -5

# Other records follow:
Structure | UUG fidelity
C[C@@H]1CN([C@@H](C)CO)C(=O)c2cccc(NS(=O)(=O)c3ccc(Cl)cc3)c2O[C@H]1CN(C)Cc1ccc(Oc2ccccc2)cc1 | 7
Cc1noc(C)c1NC(=O)Nc1cccc2c1O[C@@H](CN(C)S(=O)(=O)c1cccs1)[C@H](C)CN([C@@H](C)CO)C2=O | 8
C[C@@H]1CN([C@H](C)CO)C(=O)c2cc(NC(=O)Cn3cnnn3)ccc2O[C@@H]1CN(C)Cc1ccc(C(=O)Nc2ccccc2N)cc1 | -14
CO[C@H]1CN(C)C(=O)c2ccc(NS(=O)(=O)c3ccccc3)cc2OC[C@H](C)N(C(=O)NC(C)C)C[C@@H]1C | 11
CCCC(=O)Nc1ccc2c(c1)OC[C@@H](C)N(Cc1nccs1)C[C@@H](C)[C@H](OC)CN(C)C2=O | -1
CN1C[C@@H]2[C@H](c3ccccc31)[C@@H](CO)N2C(=O)C1CCOCC1 | -7
O=C(C[C@@H]1CC[C@H]2[C@@H](COC[C@@H](O)CN2C(=O)Nc2cc(Cl)cc(Cl)c2)O1)N1CCCCC1 | 11
Cc1noc(C)c1NC(=O)Nc1ccc2c(c1)C(=O)N([C@H](C)CO)C[C@@H](C)[C@H](CN(C)C(=O)Nc1ccc(C(F)(F)F)cc1)O2 | -16

# (next part)
Structure | UUG fidelity
CO[C@H]1CN(C)C(=O)c2cc(NC(=O)Nc3ccccc3F)ccc2OC[C@@H](C)NC[C@H]1C | -8
Cc1ccc(S(=O)(=O)N(C)C[C@H]2Oc3c(NC(=O)C4CC4)cccc3C(=O)N([C@@H](C)CO)C[C@@H]2C)cc1 | -3
O=C(C[C@H]1CC[C@H]2NC[C@H](O)COC[C@@H]2O1)NCCc1ccccc1 | 3
CCC(=O)Nc1ccc2c(c1)C(=O)N(C)C[C@H](OC)[C@H](C)CN(C(=O)Cc1cccnc1)[C@@H](C)CO2 | -16
O=C(Nc1nccs1)[C@@H]1[C@@H](CO)[C@@H]2Cn3c(cccc3=O)[C@@H]2N1C(=O)C1CCC1 | -8
C/C=C/c1ccc([C@H]2[C@@H](CNC(C)C)N(C(=O)c3ccccn3)[C@H]2CO)cc1 | -11
CCCNC(=O)N1C[C@H]2[C@@H](c3ccccc31)[C@H](CO)N2C(=O)NCCC | -13
COc1ccc(NC(=O)N(C)C[C@H]2Oc3c(NC(=O)NC(C)C)cccc3C(=O)N([C@H](C)CO)C[C@H]2C)cc1 | 3

# The results go on:
Structure | UUG fidelity
CO[C@H]1CN(C)C(=O)c2cc(NC(=O)Nc3ccc(Cl)cc3)ccc2OC[C@@H](C)NC[C@H]1C | 1
O=C(C[C@H]1CC[C@@H]2[C@H](COC[C@@H](O)CN2C(=O)Nc2ccc(Cl)c(Cl)c2)O1)NCc1ccc(Cl)c(Cl)c1 | -24
CN(C)CC(=O)Nc1ccc2c(c1)[C@H]1C[C@@H](CC(=O)NCc3cccnc3)O[C@@H](CO)[C@H]1O2 | -18
CC(C)NC(=O)N1[C@@H]2CN(C(=O)c3ccccc3F)c3ccccc3[C@@H]2[C@@H]1CO | -2
C[C@@H]1CN([C@H](C)CO)C(=O)c2cc(NS(C)(=O)=O)ccc2O[C@H]1CN(C)Cc1ccc(-c2ccccc2)cc1 | -5
C[C@H](CO)N1C[C@H](C)[C@H](CN(C)C)Oc2ccc(NC(=O)c3ccncc3)cc2CC1=O | -12
N#Cc1ccc(-c2ccc([C@H]3[C@H]4CN(S(=O)(=O)c5ccccc5)CCCCN4[C@H]3CO)cc2)cc1 | 15
C[C@@H](O)C#Cc1ccc([C@@H]2[C@@H](CO)N3CCCCN(C(=O)Nc4ccccc4)C[C@H]23)cc1 | 30

# Source: PubChem BioAssay (Broad Institute)
